Screens from PubChem BioAssay.
CtBP-E1A inh: qHTS Assay for Inhibitors of the CtBP/E1A Interaction | AlphaScreen GST-E1A/His-CtBP binding, 1536-well; active compounds read low; control for the full effect not named in the record | 340,000 compounds, 0.49% hits | activity change, % (concentration not given with the values); in the data active means activity change below about -65%; inconclusive means about -30% to -65%; inactive means above about -30%; further: on the % scale 0 is the no-effect control and ±100 the full control effect
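In 5 uL wells, 23 nL compound meets equimolar GST-E1A and His-CtBP (5X stock 125 nM each) for 2 h, 37 °C. Beads (5X, 50 ug/mL) then 1 h, 37 °C, dark.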
PINK1 expr mod: A Quantitative High throughput Screen to Identify Chemical Modulators of PINK1 Expression. PINK1 immunofluorescence, high-content cytometry, 24 h. Potency, µM (series often up to 76.6 µM), for the others: at the top dose activation (PINK1 increase), usual class: activators. 410,000 compounds, 0.2% hits. AID 624263, 2012; active = well fitted activation curve with a large enough effect; inconclusive = small, poorly fitted or top-dose-only effect; inactive = flat fitted curve, though single readings scatter; cell line not stated here;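 further: potency means the concentration at half of the fitted maximal effect; % of control where 0% means no effect; nearly all actives have a fitted effect of over 65% in size; a mitochondrial uncoupler was the plate control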
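Measures PINK1 amount and localization on or inside mitochondria by immunofluorescence. Stable cells get compounds at 5 concentrations for 24 hours before fixation and staining; CCCP controls included.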
TRPML1 agonist: qHTS for Agonists of the Human Mucolipin Transient Receptor Potential 1 (TRPML1). activation, % (concentration not given with the values). TRPML1-expressing cells, Ca2+ dye fluorescence, FDSS; host cell line not named in the record; reference of the full effect not given here. 410,000 compounds, 0.12% hits; in the data active = activation above about 50%; inconclusive = about 30% to 50%; inactive = below about 30%; further: 0% is about no effect; the text of the record puts the active cut at 80%
Target sequence (Q9GZU1 whole entry, looked up): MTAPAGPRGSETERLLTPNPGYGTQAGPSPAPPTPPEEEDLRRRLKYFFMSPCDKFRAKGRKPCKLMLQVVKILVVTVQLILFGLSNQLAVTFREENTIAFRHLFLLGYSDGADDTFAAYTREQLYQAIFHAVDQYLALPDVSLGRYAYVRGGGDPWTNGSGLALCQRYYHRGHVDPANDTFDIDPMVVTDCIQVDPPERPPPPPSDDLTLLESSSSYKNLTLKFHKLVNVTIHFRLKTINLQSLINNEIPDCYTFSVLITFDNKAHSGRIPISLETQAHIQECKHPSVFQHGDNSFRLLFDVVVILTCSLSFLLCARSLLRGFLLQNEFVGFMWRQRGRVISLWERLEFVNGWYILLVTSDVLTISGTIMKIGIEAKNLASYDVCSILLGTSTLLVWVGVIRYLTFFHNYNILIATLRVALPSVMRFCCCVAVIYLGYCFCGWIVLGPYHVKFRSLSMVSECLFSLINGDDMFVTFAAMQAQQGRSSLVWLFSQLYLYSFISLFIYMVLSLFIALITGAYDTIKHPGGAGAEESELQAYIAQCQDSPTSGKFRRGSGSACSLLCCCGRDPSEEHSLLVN
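Calcium fluorescence on an FDSS kinetic reader gave the read-out. Tet-induced TRPML1-DL cells were plated overnight, dye-loaded (Ca8 with quencher, 45-90 min, room temperature, dark), then read 110 s after compound addition, and again 110 s after 4uM final 54-4 (EC80).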
D2 agonist: Beta-Arrestin HTS for Positive Allosteric Modulators of the Human D2 Dopamine Receptor: Agonists; D(2) dopamine receptor (Homo sapiens), P14416; DiscoveRx PathHunter D2 beta-arrestin, luminescence, 90 min; 100% = 57 uM dopamine signal; activation, % (no concentration beside the values); 360,000 compounds, 0.084% hits; AID 624465, 2012; in the data active = activation above about 40%; inconclusive = about 15% to 40%; inactive = below about 15%; further: compound concentration not given in the record; the text of the record calls up to 30% inactive
Target sequence (P14416 whole entry, looked up): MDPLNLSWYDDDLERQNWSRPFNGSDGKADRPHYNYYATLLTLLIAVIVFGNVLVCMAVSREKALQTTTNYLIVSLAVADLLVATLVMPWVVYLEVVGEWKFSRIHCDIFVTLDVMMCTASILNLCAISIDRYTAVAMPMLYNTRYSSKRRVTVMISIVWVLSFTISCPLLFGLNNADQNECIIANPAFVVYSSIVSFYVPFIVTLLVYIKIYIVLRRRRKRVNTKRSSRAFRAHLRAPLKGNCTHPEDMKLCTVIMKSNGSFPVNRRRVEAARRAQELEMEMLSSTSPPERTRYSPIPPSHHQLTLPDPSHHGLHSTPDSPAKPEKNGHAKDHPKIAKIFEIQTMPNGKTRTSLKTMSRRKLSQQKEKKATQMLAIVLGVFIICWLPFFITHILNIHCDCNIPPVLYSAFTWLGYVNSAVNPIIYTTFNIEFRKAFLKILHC
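DiscoveRx PathHunter D2 beta-arrestin cells (2,100/well) attached overnight, then compound-stimulated 90 min at 37 C in HBSS/10 mM HEPES/0.1% Tween-20 buffer; beta-galactosidase complementation read by luminescence after 1 h at ambient temperature. Dopamine 57 uM final (EC100) as control.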
Six1-Eya2 blk: qHTS Assay for Inhibitors of the Six1/Eya2 Interaction; Homeobox protein SIX1 (Homo sapiens) + Protein phosphatase EYA2 (Homo sapiens), …; AlphaScreen GST-Six1/His-Eya2 binding, biochemical; active compounds read low; control for the full effect not named in the record; activity change, % (test concentration not listed); 360,000 compounds, 0.56% hits; in the data active = activity change below about -65%; inconclusive = about -30% to -65%; inactive = above about -30%; further: on the % scale 0 is the no-effect control and ±100 the full control effect
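AlphaScreen with GST-Six1 and His-Eya2 (5X mix: 250 nM and 500 nM), glutathione donor and nickel acceptor beads; buffer 50 mM Tris pH 8.0, 300 mM NaCl, 1 mM TCEP; 1 h at 37 C in the dark.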
TRPML1 inh: qHTS for Inhibitors of the Human Mucolipin Transient Receptor Potential 1 (TRPML1). Mucolipin-1 (Homo sapiens), Q9GZU1. TRPML1-inducible cells, Ca2+ dye fluorescence, FDSS; active compounds read low; inhibition of EC80 agonist-evoked calcium signal. activity change, negative = inhibition, % (test concentration not listed). 390,000 compounds, 0.02% hits. AID 624415, 2012; in the data active means activity change below about -50%; inconclusive means about -30% to -50%; inactive means above about -30%;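 further: stimulus is agonist 54-4 at its EC80 concentration; on the % scale 0 is the no-effect control and ±100 the full control effect; compound concentration not given in the record; the text of the record puts the active cut at -80%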
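TRPML1-DL cells, Tet-induced overnight (~16 h, 37 °C) at 1,500 cells/well, were loaded with Ca8 no-wash dye plus quencher for 45-90 min at room temperature. Compounds were pinned during FDSS kinetic reading; agonist 54-4 at EC80 (4 uM final) then added.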
Active calls of the source: *; ? = inconclusive; . = no result given; & = joins results of further samples; [ ] = dose if it differs, or a comment.

#	smiles	TRPML1 agonist	TRPML1 inh	D2 agonist	PINK1 expr mod	CtBP-E1A inh	Six1-Eya2 blk
1	CC[C@@]1(C(=O)OC)N[C@H](CN(C)S(=O)(=O)c2ccc(C(C)(C)C)cc2)[C@@H]2C(=O)N(C)C(=O)[C@@H]21	-0.6	2	-1.2	1.1%	0	3
2	Cc1ccc2oc(-c3ccc(C)c(NC(=O)/C=C/c4ccco4)c3)nc2c1	-0.3	-4	.	0.9%	.	.
3	CC(C)CNS(=O)(=O)c1ccc(CCC(=O)NCc2ccco2)cc1	0.2	10	-0.5	-0.5%	-4	-9
4	Cc1cc(S(=O)(=O)NCc2ccco2)c(C)cc1Cl	1.7	20	-3.6	3.7%	0	-3
5	COc1ccccc1Nc1cc(C(=O)NC2CCCC2)c2ccccc2n1	-1.2&0.5	3&14	-0.8	4.6%&7.6%	10	14
6	O=C(CCc1ccccc1)Nc1cccc(-c2nnc(-c3ccco3)o2)c1	0.0	13	0.7	3.2%	2	-1
7	CCc1ccc2c(c1)-c1ccccc1S(=O)(=O)N2CC(=O)N1CCCCC1	-0.7	28	.	0.6%	.	.
8	Cn1c(=O)c(C(=O)NNC(=O)c2ccc(Br)cc2)c(O)c2ccccc21	-0.7	8	-4.8	?	-14	-10
9	CC(C)(C)c1ccc(C(=O)NNC(=O)C(=O)N2CCCCC2)cc1	-0.2	-27	-1.5	-3.2%[38.3 µM]	16	2
10	CC(=O)Nc1ccc2nc(-c3ccncc3)[nH]c2c1	-0.5	6	-2.9	1.0%	4	-6
11	N#Cc1nc(-c2cccs2)oc1NCCN1CCOCC1	-0.7	7	-3.6	3.1%	-2	-18
12	C=CCn1c(SCCOc2ccc(OC)cc2)nnc1C(NC(=O)c1ccc(OC)cc1)C(C)C (stereo not given)	4.6	2	-0.9	-0.5%[38.3 µM]	3	-3
13	O=C(NCCCN1CCOCC1)c1ccc2c(c1)N(Cc1ccccc1F)C(=O)c1ccccc1S2=O (stereo not given)	-0.1	35	-5.1	-1.5%	-3	2
14	O=C(O)c1cnn2c(C(F)F)cc(C(F)F)nc12	-0.2	-4	-2.6	-0.5%	11	12
15	Fc1ccc(Cc2nnc(-c3cccs3)o2)cc1	0.3	6	2.3	-0.4%	7	0
16	O=C(O)CCCC(=O)N1CCc2cc(S(=O)(=O)N3CCc4ccccc43)ccc21	-0.1	-3	6.1	0.9%	-3	?
17	COC(=O)CN(C#N)c1nc(OC)nc(N(C)C)n1	-0.4	4	-0.4	-4.8%[38.3 µM]	-3	-11
18	Cc1ccc(F)c(S(=O)(=O)NC(=O)C2(C)CCN2C(=O)Cc2cc(F)ccc2F)c1 (stereo not given)	-0.7	.	3.9	1.2%	9	2
19	COc1ccc(NC(=O)CSc2nc3c(c(=O)n2-c2ccccc2OC)SCC3)cc1	0.0	-1	-1.1	-1.0%	4	-1
20	COc1ccc(/C=C2\SC(=S)N(CCC(=O)N3CCOCC3)C2=O)cc1OC	-0.4	7	-2.3	2.9%	-1	11
21	Cc1cc(Nc2ccc(N(C)C)cc2)n2ncnc2n1	0.5	-4	-0.4	-0.9%	-4	0
22	O=C(O)CCN1C(=O)c2ccc(NC(=O)CSCc3ccccc3)cc2C1=O	0.2	4	-4.6	-1.3%	-18	1
23	CCCc1cc(C(=O)Nc2ccccc2C(=O)OC)no1	2.5	18	-3.6	7.1%	2	3
24	CCOC(=O)[C@]12CCCC=C1N(Cc1cccc3ccccc13)C(=O)[C@H](CC(=O)NCc1ccc(C)o1)C2	0.2	.	.	0.6%	-13	-14
25	COc1ccccc1-c1cc(C(=O)N2CCN(c3ccccc3)CC2)no1	1.7&0.2	-7&4	0.2	-2.6%&2.8%	0	-3
26	Cn1c(-c2ccccc2)c(/C=N/NC(=O)c2ccc(O)cc2)c2ccccc21	0.9	0	2.3	1.2%	.	-12
27	O=C(Nc1ccccc1Cl)c1cc(C2CCCN(C(=O)c3cccs3)C2)on1 (stereo not given)	-0.7	.	-0.8	0.0%	3	0
28	CCN(CC)c1ccc2ccc(=O)oc2c1	0.5	1	7.0	2.7%	.	20
29	CO[C@H]1[C@@H]2C=CO[C@@H](O[C@H]3O[C@@H](CO)[C@H](O)[C@@H](O)[C@@H]3O)[C@@H]2[C@@]2(CO)O[C@@H]12	-0.2	-7	-1.7	-0.6%	5	3
30	COc1cc2cc(CN(CCCO)S(=O)(=O)c3ccccc3Cl)c(=O)[nH]c2cc1OC	0.2	-3	-2.4	12%[38.3 µM]	-20	-10
31	CC(=O)Nc1ccc(NC(=O)c2nccnc2C(=O)O)cn1	1.5	26	-5.5	1.8%	.	5
32	C/C(=N\S(=O)(=O)c1ccc(C)cc1)N(C)C	0.5	18	-1.0	-2.0%	-1	4
33	Cc1cc(C)n(-c2ccc(F)cc2)c(=O)c1C#N	-0.1	-27	-0.4	-0.3%	3	14
34	O=C(COC(=O)CCc1c[nH]c2ccccc12)NCCc1ccccc1	2.3	-3	-0.5	-1.1%	-2	3
35	COc1cc(/C=C(/C#N)C(=O)NCCc2c[nH]c3ccccc23)ccc1OCc1ccccc1F	0.4	-13	-0.9	7.6%[38.3 µM]	-1	4
36	O=C(O)c1cccc(S(=O)(=O)Nc2ccc3c(c2)CCC3)c1	0.2	10	-1.1	1.2%	-3	4
37	Clc1ccc(OCc2nn3c(-c4ccco4)nnc3s2)c(Cl)c1	-0.8	-20	0.2	20%	-2	-2
38	CC(=O)c1cccc(NC(=O)c2cc3nc(C)cc(C)n3n2)c1	0.1	41	-3.4	2.4%	-19	-28
39	O=C1OCC/C1=C\c1ccc(O)cc1	-0.5	17	-1.5	0.1%	.	-1
40	CCCCCCN1C[C@@H](O)[C@H](n2cc(C3CC3)nn2)C[C@@H]1c1ccc(C)cc1	-0.3	1	-4.5	4.8%	2	-6
41	Cc1cccc(C(=O)NC(NCCc2ccccc2)C(Cl)(Cl)Cl)c1 (stereo not given)	5.5	-4	-0.6	-3.2%	5	14
42	O=C(O)c1cc(S(=O)(=O)N2CCCc3ccccc32)ccc1Cl	-0.2	-2	2.6	2.4%	4	0
43	Cc1cc(NC(=O)CCC(=O)N(CC(=O)NCC2CCCO2)c2ccccc2C)no1 (stereo not given)	0.4	4	-0.6	-1.1%	4	1
44	Cc1cc(C)c(NC(=O)COc2nncc3ccccc23)c(C)c1	-0.6	2	3.2	2.7%	.	12
45	Cc1ccc2ccc3cc(C(=O)N4CCN(c5ccccc5)CC4)nc3c2[nH]1	1.8	-12	.	-3.5%	.	.
46	Cc1ccc2nc(N(CCCN(C)C)C(=O)c3ccc(S(=O)(=O)N4CCCCCC4)cc3)sc2c1	2.0	-10	1.5	-1.0%	?	?
47	CC(=O)Nc1cccc(OCCCOc2ccc([N+](=O)[O-])cc2)c1	0.9	19	-7.6	0.3%	.	0
48	O=C(Nc1cccc(C(=O)N2CCOCC2)c1)c1ncn[nH]1	-0.3	9	-0.6	.	4	?
49	CCS(=O)(=O)Nc1ccc(-c2cn3c(C)csc3n2)cc1	-1.2	12	.	-0.4%	.	.
50	CCC(C)Sc1ccc(-c2nc3cc(C)ccn3c2NC2CCCCC2)cc1 (stereo not given)	1.4&0.5	12	?	14µM*	1&0	3&-6

Of the compounds above, these have a tert-butyl group:
#	smiles	TRPML1 agonist	TRPML1 inh	D2 agonist	PINK1 expr mod	CtBP-E1A inh	Six1-Eya2 blk
1	CC[C@@]1(C(=O)OC)N[C@H](CN(C)S(=O)(=O)c2ccc(C(C)(C)C)cc2)[C@@H]2C(=O)N(C)C(=O)[C@@H]21	-0.6	2	-1.2	1.1%	0	3
9	CC(C)(C)c1ccc(C(=O)NNC(=O)C(=O)N2CCCCC2)cc1	-0.2	-27	-1.5	-3.2%[38.3 µM]	16	2

(list continues)
#	smiles	TRPML1 agonist	TRPML1 inh	D2 agonist	PINK1 expr mod	CtBP-E1A inh	Six1-Eya2 blk
51	CC(C)OC(=O)CC(NC(=O)OC(C)(C)C)c1ccccc1 (stereo not given)	0.5	24	-2.8	0.0%	11	7
52	Cc1nn(C)cc1S(=O)(=O)Nc1ccc(F)c(F)c1	0.3	1	-0.2	0.3%	3	6
53	COc1ccc(OC)c(C2C(C#N)=C(N)Oc3cc(N)ccc32)c1 (stereo not given)	-0.5	32	-2.8	3.3%	0	-3
54	CC1CCN(S(=O)(=O)c2ccc3c(c2)C(Cl)(Cl)C(=O)N3)CC1	5.7	37	-4.8	9.4%	2	0
55	COc1ccccc1-c1coc2c(CN3CCCC(C)C3)c(O)ccc2c1=O (stereo not given)	-0.6	3	-0.9	-0.7%	.	-2
56	COc1cccc(-c2nc(CSCC(=O)NCCc3ccc(Cl)cc3)c(C)o2)c1	-0.3	-1	.	-1.7%	.	.
57	CNC(=O)c1cc2c(cn1)[nH]c1ccccc12	-0.9&-0.6	0	3.3	1.0%&-0.4%	-12	-5
58	CN(Cc1cccs1)C(=O)c1cc(S(=O)(=O)N2CCOCC2)ccc1F	-0.7	2	-1.7	-0.4%	.	0
59	CCOC(=O)[C@@H]1[C@H]2COc3cc(OC)ccc3[C@@H]2N2C(=O)N(c3cccc(C)c3)C(=O)[C@]12C	1.2	14	-2.4	-0.5%	3	-2
60	Cc1cccc(-n2c(C)nc3cc(C(=O)NCCC4=CCCCC4)ccc32)c1	0.4	0	.	0.5%	.	.
61	COC(=O)C1=C(C)N(C)C(C)=C(C(=O)OC)C1c1cccc(Br)c1	2.6	0	-0.7	6.4%	6	0
62	O=C(CC1C(=O)NCCN1C(=O)Nc1ccc(F)cc1)Nc1ccc(F)cc1 (stereo not given)	4.9	11	-3.8	0.6%	0	9
63	CCN1/C(=C/c2ccc3ccc(C)cc3[n+]2CC)Sc2ccccc21	70*	-29	-4.8	?	-13	-9
64	O=c1cc(O)c2c(=O)n(-c3ccccc3)c3c(c2o1)CCCCC3	-0.2	-1	-1.3	1.3%	6	-8
65	CC1CCN(S(=O)(=O)c2ccc3[nH]c(=O)[nH]c3c2)CC1	0.2	29	-3.2	-0.7%	-1	1
66	Cc1c(-c2ccc(Br)cc2)[n+](=O)c2c(n1[O-])CCCC2	-0.3	-23	-4.9	2.6%	-1	2
67	Cc1nc(Sc2ccc(Br)cc2)c(C#N)c(C)c1[N+](=O)[O-]	1.1	-6	-3.0	-3.5%	-1	-15
68	CN(C(=O)COc1ncnc2c1cnn2-c1ccccc1)C1CCCCC1	-0.1	0	-4.1	9.2%	7	2
69	CN(C)S(=O)(=O)c1cc(NC(=O)c2ccc(-n3ccnc3)c([N+](=O)[O-])c2)ccc1Cl	0.3	18	4.2	0.8%	-19	-23
